# Compound activity as filed in PubChem BioAssay.
# TRPV1 PAM: human TRPV1 potentiation; Q8NER1; TRPV1-expressing cells, Fluo-8 calcium influx, capsaicin EC20 potentiation; host cell line not named in the record; control for the full effect not named in the record; potentiation, % at 8.33 µM; hit rate 0.02% among 320,000; active means potentiation above 80%; inconclusive means 30% to 80%; inactive means below 30%; note: 0% is about no effect
#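 Fluo-8 calcium influx in TRPV1-expressing cells, kinetic read (ex 480/em 520 nm). Compound added and read 3 min for agonist activity, followed by capsaicin at EC20 final and 2 min further read for enhancement.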
# D2 potentiator: positive allosteric modulators of human D2 dopamine receptor; P14416; DiscoveRx D2 beta-arrestin cells, luminescence, 90 min; 100% = 57 uM dopamine signal; potentiation, % (test concentration not listed); hit rate 0.23% among 360,000; AID 624464; active = potentiation of 50% or more; inconclusive = 30% to 50%; inactive = 30% or less;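 note: compound concentration not given in the record; tested on top of an EC20 dose of dopamine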
#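 PathHunter beta-arrestin assay in DiscoveRx D2 cells. Compounds were added with an EC20 of dopamine (50 nM final) for 90 min at 37 deg C. Luminescence was read 1 h after detection reagent, with 57 uM dopamine as the EC100 control.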
# TRPML1 inh: human mucolipin-1 channel inhibition. Q9GZU1. TRPML1-inducible cells, Ca2+ dye fluorescence, FDSS; stronger effect = lower value; inhibition of EC80 agonist-evoked calcium signal. activity change, negative = inhibition, % (no concentration beside the values). hit rate 0.02% among 390,000; in the data active means activity change below about -50%; inconclusive means about -30% to -50%; inactive means above about -30%;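 note: stimulus is agonist 54-4 at its EC80 concentration; % is set by controls: 0 for no effect and ±100 for the full control effect; compound concentration not given in the record; the text of the record puts the active cut at -80%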
#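 Calcium fluorescence in TRPML1-DL cells induced overnight with Tet: a 110 s read after compound pin addition, then a 110 s antagonist read after challenge with 54-4 at 4 uM final (EC80).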
# TRPML1 agonist: activates the human TRPML1 channel; Q9GZU1; TRPML1-expressing cells, Ca2+ dye fluorescence, FDSS; host cell line not named in the record; reference of the full effect not given here; activation, % (test concentration not listed); hit rate 0.12% among 410,000; AID 624414; in the data active = activation above about 50%; inconclusive = about 30% to 50%; inactive = below about 30%; note: 0% is about no effect; the text of the record puts the active cut at 80%
#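 Calcium fluorescence on an FDSS kinetic reader gave the read-out. Tet-induced TRPML1-DL cells were plated overnight, dye-loaded (Ca8 with quencher, 45-90 min, room temperature, dark), then read 110 s after compound addition, and again 110 s after 4uM final 54-4 (EC80).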
# CtBP-E1A blk: inhibitors of CtBP/E1A interaction | AlphaScreen GST-E1A/His-CtBP binding, 1536-well; stronger effect = lower value; control for the full effect not named in the record | activity change, % (no concentration beside the values) | hit rate 0.49% among 340,000 | AID 651724; in the data active means activity change below about -65%; inconclusive means about -30% to -65%; inactive means above about -30%; note: % is set by controls: 0 for no effect and ±100 for the full control effect; compound concentration not given in the record
#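 Protein mix (5X: 125 nM each GST-E1A, His-CtBP) was incubated with pinned compound 2 h at 37 deg C in dark, in 50 mM Tris pH 8.0 buffer with 300 mM NaCl. Glutathione donor and nickel acceptor beads followed; AlphaScreen signal read after 1 h.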
# Six1-Eya2 blk: Six1/Eya2 interaction inhibition | AlphaScreen GST-Six1/His-Eya2 binding, biochemical; stronger effect = lower value; control for the full effect not named in the record | AID 651725 | Q15475+O00167 | activity change, % (concentration not given with the values) | hit rate 0.56% among 360,000; in the data active = activity change below about -65%; inconclusive = about -30% to -65%; inactive = above about -30%; note: % is set by controls: 0 for no effect and ±100 for the full control effect
# Target sequence (O00167 whole entry, looked up): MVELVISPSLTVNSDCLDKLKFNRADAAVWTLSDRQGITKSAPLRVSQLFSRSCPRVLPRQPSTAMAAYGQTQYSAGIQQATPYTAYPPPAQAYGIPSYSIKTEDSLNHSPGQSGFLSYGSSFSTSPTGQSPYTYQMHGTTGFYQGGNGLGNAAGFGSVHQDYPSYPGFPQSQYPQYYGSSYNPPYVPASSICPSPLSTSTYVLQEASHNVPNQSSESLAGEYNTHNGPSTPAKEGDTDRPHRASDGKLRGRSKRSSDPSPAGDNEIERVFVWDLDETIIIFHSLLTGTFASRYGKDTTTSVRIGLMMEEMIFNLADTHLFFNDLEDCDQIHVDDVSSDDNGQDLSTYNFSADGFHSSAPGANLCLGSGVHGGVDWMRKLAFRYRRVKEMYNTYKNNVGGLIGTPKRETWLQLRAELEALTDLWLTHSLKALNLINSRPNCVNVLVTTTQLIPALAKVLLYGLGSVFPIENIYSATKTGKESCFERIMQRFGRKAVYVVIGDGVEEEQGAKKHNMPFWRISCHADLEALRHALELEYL
# Target sequence (Q15475 whole entry, looked up): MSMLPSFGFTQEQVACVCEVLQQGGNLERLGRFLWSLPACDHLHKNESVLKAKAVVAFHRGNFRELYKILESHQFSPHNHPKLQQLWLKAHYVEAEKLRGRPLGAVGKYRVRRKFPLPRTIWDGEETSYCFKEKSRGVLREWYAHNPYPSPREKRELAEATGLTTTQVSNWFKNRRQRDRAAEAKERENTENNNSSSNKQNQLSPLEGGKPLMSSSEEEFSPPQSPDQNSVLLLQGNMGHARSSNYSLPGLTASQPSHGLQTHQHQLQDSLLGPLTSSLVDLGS
#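 AlphaScreen luminescence read after one hour at 37 °C in darkness. Pin-transferred compounds met GST-Six1 and His-Eya2 protein (5X stock 250 nM/500 nM) plus glutathione donor and Ni-chelate acceptor beads (5X, 50 ug/mL).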
# Starred values were filed as active, the others as inactive; ? = inconclusive; . = no result given. Rows are unselected; 0.95% or so of the library scored in one or more.
no.	SMILES	TRPV1 PAM	D2 potentiator	TRPML1 inh
1	COc1cc(NC(=O)c2cccnc2)c(Cl)cc1NC(=O)c1ccc(Cl)cc1	-4	17	-15
2	Cc1cc(C)cc(-n2c(O)c(C=NC3CCS(=O)(=O)C3)c3ccccc3c2=O)c1 (centres undefined)	-8	5	-14
3	CCOc1ccccc1NC(=O)c1cc(S(=O)(=O)N2CCOCC2)ccc1C	18	2	8
4	O=C(c1cc(=O)[nH]c2ccccc12)N1CCN(Cc2ccc3c(c2)OCO3)CC1	5	-30	-3
5	CN(C)C(=O)c1cc(S(=O)(=O)N(C)C)c(Cl)cc1N1CCCC1	-17	-4	-5
6	Cc1ccc(NC(=O)CN2CCc3cc4c(cc3C2)OCCCO4)cc1	-2	-31	-1
7	CCc1ccc(Nc2cc(C(=O)NCCCN3CCOCC3)c3ccccc3n2)cc1	?	-3	-7
8	Nc1ccnc(=O)[nH]1	3	-4	-21
9	CCCC1CCC(c2nc(-c3cccnc3)no2)CC1 (centres undefined)	-4	5	-10
10	Cc1ccccc1C(=O)NCC(=O)NCC1(N2CCOCC2)CCCCC1	27	-2	-3

no.	TRPML1 agonist	CtBP-E1A blk	Six1-Eya2 blk
1	0.0	8	2
2	-0.5	-14	-3
3	-0.4	-5	12
4	0.1	7	1
5	0.4	10	7
6	-1.2	2	-5
7	0.5	6	3
8	-0.6	-1	5
9	0.0	15	10
10	-0.5	2	3

# (next part)
no.	SMILES	TRPV1 PAM	D2 potentiator	TRPML1 inh
11	CCOC(=O)c1cncc(O)c1	12	7	-12
12	CCOC(=O)c1cnn2c(C)cc(-c3ccc(F)cc3)nc12	-19	-15	-24
13	O=C(Nc1ccc2c(c1)OCO2)c1cc(-c2ccncc2)nc2ccccc12	4	4	-14
14	NS(=O)(=O)c1ccc(NC(=S)NC2CC2)cc1	0	-24	-13
15	COCC(=O)Nc1ccc([N+](=O)[O-])cc1OC	4	-17	-10
16	C/C(=N\N=C(N)N)c1cc(Cl)ccc1Cl	12	-12	-8
17	Cn1c(NC(=O)c2cc(Br)ccc2Cl)cc(=O)n(C)c1=O	-14	-4	-2
18	O=C(NCc1ccncc1)C(=O)Nc1ccc2c(c1)OCO2	-5	-7	8
19	O=C(CSCCc1ccccn1)Nc1cccnc1	3	-4	-5
20	CCOc1ccccc1OCCCOc1ccc(C)cc1Br	16	-13	2

no.	TRPML1 agonist	CtBP-E1A blk	Six1-Eya2 blk
11	0.7	3	1
12	2.3	-11	-2
13	0.9	-14	?
14	2.4	.	1
15	-0.7	-19	-10
16	0.2	.	4
17	0.1	2	1
18	-0.1	.	-1
19	0.7	-2	11
20	-0.5	85	74

# New compounds follow
no.	SMILES	TRPV1 PAM	D2 potentiator	TRPML1 inh
21	O=C(NC1CCCCC1)C1c2ccccc2OCC(=O)N1Cc1ccccc1 (centres undefined)	.	.	.
22	c1ccn2cc(-c3ccc4c(c3)OCCO4)nc2c1	7	-5	43
23	Cc1ccc(NC(=O)Cc2ncon2)cc1Cl	5	-11	8
24	Cc1sc2ncnc(Sc3nnnn3-c3ccc(Cl)cc3)c2c1C	-15	15	24
25	c1ccc(CCNc2cc(-c3ccc4ccccc4c3)nc3ccnn23)nc1	.	-11	.
26	CCc1ccccc1NC(=O)CCS(=O)(=O)c1ccc2c(c1)CCCN2C(C)=O	-15	-10	-5
27	COc1cc2ccccc2cc1C(=O)Nc1ccncc1	-24	-4	2
28	CCOC(=O)/C=C/C(=O)Nc1ccc(S(=O)(=O)Nc2cc(C)on2)cc1	8	1	11
29	COC(=O)Nc1ccc(S(=O)(=O)N2CCCCC2)cc1	10	4	-17
30	COCCCNC(=O)CN(c1cc(Cl)ccc1OC)S(=O)(=O)c1ccc(C)c([N+](=O)[O-])c1	11	-2	0

no.	TRPML1 agonist	CtBP-E1A blk	Six1-Eya2 blk
21	-0.8	8	7
22	0.9	.	6
23	0.0	4	-8
24	5.6	1	-1
25	-0.6	3	10
26	0.2	0	0
27	-0.3	-7	3
28	1.8	-2	-6
29	-0.4	1	3
30	0.6	-1	-15

# Further records follow:
no.	SMILES	TRPV1 PAM	D2 potentiator	TRPML1 inh
31	COc1ccc(-c2nn(CCC(=O)O)cc2/C=N/NC(N)=S)cc1	-4	-3	16
32	CC(=O)n1nc(-c2ccco2)nc1SCc1ccccc1	-3	-5	-8
33	O=C(COc1ccccc1-c1ccccc1)NCc1cccc(Cl)c1	17	-15	-7
34	COc1cc(CCC(=O)OCC(=O)Nc2cccc(S(N)(=O)=O)c2)cc(OC)c1OC	-5	0	-17
35	CCN(CC)S(=O)(=O)c1ccc(Cl)c(C(=O)N2CCc3ccccc32)c1	8	4	15
36	CC(=O)OCC1OC(Nc2cccc(C)c2)C(OC(C)=O)C(OC(C)=O)C1OC(C)=O (centres undefined)	1	3	-11
37	Cn1cc(C(=O)C(=O)NC2CC2)c2ccccc21	.	-3	-5
38	CCOc1cc(/C=N\Nc2ncc(F)c(N3CCOCC3)n2)ccc1Oc1nc(Cl)ncc1F	-7	1	7
39	C[C@@]12CCC3[C@@](CC[C@@H]4[C@](C)(C(=O)O)CCC[C@@]34C)(C[C@H]1O)C2 (some centres undefined)	-12	-6	19
40	CN(C)c1ccc(/C=[N+](\[O-])C2N(c3ccccc3)C(=S)SC2(C)C)cc1 (centres undefined)	-15	0	11

no.	TRPML1 agonist	CtBP-E1A blk	Six1-Eya2 blk
31	0.8	0	7
32	1.6	-5	2
33	3.9	29	1
34	-0.1	2	-2
35	2.1	-7	4
36	-0.7	6	1
37	0.4	2	1
38	-0.7	-6	-25
39	1.3	.	10
40	-0.2	21	15

# Random excerpt: six entries already listed.
no.	SMILES	TRPV1 PAM	D2 potentiator	TRPML1 inh
1	COc1cc(NC(=O)c2cccnc2)c(Cl)cc1NC(=O)c1ccc(Cl)cc1	-4	17	-15
31	COc1ccc(-c2nn(CCC(=O)O)cc2/C=N/NC(N)=S)cc1	-4	-3	16
24	Cc1sc2ncnc(Sc3nnnn3-c3ccc(Cl)cc3)c2c1C	-15	15	24
29	COC(=O)Nc1ccc(S(=O)(=O)N2CCCCC2)cc1	10	4	-17
13	O=C(Nc1ccc2c(c1)OCO2)c1cc(-c2ccncc2)nc2ccccc12	4	4	-14
8	Nc1ccnc(=O)[nH]1	3	-4	-21

no.	TRPML1 agonist	CtBP-E1A blk	Six1-Eya2 blk
1	0.0	8	2
31	0.8	0	7
24	5.6	1	-1
29	-0.4	1	3
13	0.9	-14	?
8	-0.6	-1	5

# Next section.
no.	SMILES	TRPV1 PAM	D2 potentiator	TRPML1 inh
41	CN(CC(=O)Nc1ccc(F)cc1)C(=O)CN1C(=O)NC(CCc2ccccc2)C1=O (centres undefined)	.	-7	29
42	COc1ccccc1C(=O)NC1CC2CCCC(C1)N2Cc1ccccc1 (centres undefined)	.	-39	-8
43	C[C@]12c3[nH]c4ccccc4c3CCN1C(=O)C(CC(=O)NCCc1ccccn1)C[C@@H]2C(=O)N1CCCCC1 (some centres undefined)	.	.	17
44	CSc1nc(C)c2c(n1)N(c1ccc(C(F)(F)F)cc1)CC2	2	-22	-2
45	CCC(C)NC(=O)CSc1nnc(-c2ccncc2)n1-c1ccc(OC)cc1 (centres undefined)	2	2	9
46	CS(=O)(=O)Nc1ccc(C(=O)Nc2ccc3c(c2)OCO3)cc1	-3	-6	2
47	COc1ccc(CNC(=O)CN(C(=O)c2snc(C(N)=O)c2N)c2ccc(OC)c(OC)c2)cc1	0	2	1
48	O=S(=O)(Nc1nc2ccccc2nc1-[n+]1cccc(N=C([O-])c2ccc(Cl)cc2)c1)c1ccccc1	?	-11	-18
49	CNC(=O)COC(=O)c1cc(-c2ccccc2)nn1-c1ccccc1	-8	2	-7
50	COc1ccc(/C=N/NC(=O)c2ccc(N(C)S(=O)(=O)c3ccccc3)cc2)cc1OC	-1	7	9

no.	TRPML1 agonist	CtBP-E1A blk	Six1-Eya2 blk
41	-0.2	5	-4
42	-0.9	12	-6
43	-0.5	0	-5
44	-0.5	3	-1
45	0.6	4	1
46	2.0	-23	-7
47	-0.2	24	0
48	0.3	0	-19
49	0.0	3	1
50	0.8	-29	-4

# (next part)
no.	SMILES	TRPV1 PAM	D2 potentiator	TRPML1 inh
51	COc1ccc(CN(C)Cc2cc(=O)n3ccsc3n2)c(OC)c1OC	9	-2	8
52	O=C(CCC(=O)N1CCN(c2ccc(C(F)(F)F)cn2)CC1)c1cccs1	-16	-1	3
53	CCOc1ccc(/C=C/C(=O)Nc2cccc(C(C)=O)c2)cc1	13	-1	-29
54	COC(=O)C1=C(C)N(C)C(C)=C(C(=O)OC)C1c1ccsc1	-4	-1	-6
55	O=C(c1cc(Cl)ccc1OCc1ccccc1)N1CCOCC1	0	7	22
56	Cc1c(C(=O)NCc2ccoc2)oc2ccc3c(c12)C(=O)CC(C)(C)O3	6	15	7
57	Cc1cc2oc(=O)cc(Cn3ncc(Cl)c(Cl)c3=O)c2cc1Cl	-6	-3	9
58	CCN(CC(=O)NCc1ccc(Cl)cc1)C(=O)C(C)Sc1ccccc1 (centres undefined)	-4	-6	-13
59	CC(C)=CC(=O)OCC(=O)Nc1cc(C)cc(C)c1	-12	-9	7
60	O=C(Nc1cccc(Cl)c1)C1CCCN(C2=NS(=O)(=O)c3ccccc32)C1 (centres undefined)	0	-14	13

no.	TRPML1 agonist	CtBP-E1A blk	Six1-Eya2 blk
51	0.3	0	4
52	0.3	-15	4
53	0.7	4	2
54	3.0	6	4
55	-0.8	12	2
56	-0.9	-9	-13
57	0.1	3	15
58	0.7	9	-3
59	-2.0	12	-1
60	-0.1	0	-11

# (list continues)
no.	SMILES	TRPV1 PAM	D2 potentiator	TRPML1 inh
61	CC(C)(C)OC(=O)C[C@@H]1C/C=C\C[C@@H](CC(=O)NCCO)C(=O)N2CCC[C@H]2COC1=O	.	-10	22
62	c1nnc(NC2=NCCC2)s1	6	-18	-13
63	CC(C)c1nnc(NC(=O)CCC(=O)N2CCN(c3ccc(F)cc3)CC2)s1	?	-9	?
64	CCCN(CC(=O)Nc1ccccc1C)C(=O)COC(=O)c1cnc(C)cn1	.	1	4
65	CCOC(=O)C1=CN(Cc2cccc(F)c2)S(=O)(=O)N(C)C1c1ccc(F)c(Cl)c1 (centres undefined)	.	.	8
66	CCn1c(CNS(=O)(=O)c2ccc(Br)cc2)n[nH]c1=S	3	-14	64
67	COc1ccccc1C(=O)NCc1nnc(SCC(=O)Nc2nccs2)n1C	11	0	-2
68	O=C(c1ccc(Cl)cc1)N(Cc1ccco1)C1CCS(=O)(=O)C1 (centres undefined)	-10	-3	0
69	CC(C)CC(=O)c1c[nH]c(C(=O)NCC2CCCO2)c1 (centres undefined)	-4	0	5

no.	TRPML1 agonist	CtBP-E1A blk	Six1-Eya2 blk
61	-0.4	7	9
62	-0.7	0	10
63	1.7	4	5
64	0.2	2	-1
65	0.0	2	8
66	0.7	6	18
67	0.3	-2	2
68	0.2	-4	1
69	-0.2	9	1
